Ecoli rRNA inh = inhibitors of bacterial rRNA selective over humanized ribosomes; GFP signal change (wild-type ribosome), % (test concentration not listed); E. coli WT GFP vs humanized-ribosome RFP mutants, fluorescence, 24 h; active compounds read low; DMSO median 0, no signal -100; AID 720706; 1.6% of 350,000 active;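 active = significant combined selectivity score with lowered wild-type GFP, culture density cut under 30%, mutant RFP and density less affected; inactive = any of these conditions unmet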; note: one replicate is shown; some compounds called inactive have numbers as strong as hits
MLL AF4-AF9 inh = blocks AF4 peptide binding to human AF9; P42568; AlphaScreen, biotin-AF4 peptide binding to FLAG-AF9; inhibition, % at 10 µM; 0.47% of 350,000 active;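 active = every replicate reaching a set inhibition limit, whatever the replicate mean, cut at about 25% in these data; inconclusive = mean inhibition reaches that limit but some replicates miss it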;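 note: 0% = plate neutral control median and 100% = total signal loss; the record names both 10 and 1 µM as test concentration; the first replicate is given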
Target sequence (P42568 whole entry, looked up): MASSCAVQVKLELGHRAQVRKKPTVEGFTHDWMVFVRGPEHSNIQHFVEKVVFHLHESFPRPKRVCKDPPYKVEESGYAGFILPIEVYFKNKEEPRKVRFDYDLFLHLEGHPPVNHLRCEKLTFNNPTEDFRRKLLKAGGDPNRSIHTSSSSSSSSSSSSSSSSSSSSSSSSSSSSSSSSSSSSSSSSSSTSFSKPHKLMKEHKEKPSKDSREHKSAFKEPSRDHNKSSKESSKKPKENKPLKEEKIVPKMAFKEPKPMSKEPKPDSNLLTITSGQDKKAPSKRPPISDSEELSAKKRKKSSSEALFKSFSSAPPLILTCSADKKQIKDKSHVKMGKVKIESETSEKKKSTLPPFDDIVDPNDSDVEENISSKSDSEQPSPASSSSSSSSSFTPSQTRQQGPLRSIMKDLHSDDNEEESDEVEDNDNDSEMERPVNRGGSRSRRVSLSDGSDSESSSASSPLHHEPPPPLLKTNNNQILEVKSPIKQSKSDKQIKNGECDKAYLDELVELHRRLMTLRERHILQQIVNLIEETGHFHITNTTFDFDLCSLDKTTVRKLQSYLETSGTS
Ecoli rRNA inh OD600 = second read-out of Ecoli rRNA inh, no call of its own (marks repeat the call); OD600 change, %; measured here: OD600 growth;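 optical density of the mix in the first replicate; 0 = DMSO median and -100 = no signal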
Ecoli rRNA inh RFP = further read-out of Ecoli rRNA inh, marked with its call; RFP signal change, %; measured here: RFP humanized mutant strains;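 first replicate; 0 = DMSO median and -100 = no signal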
The depositor's hits bear a star; ? = inconclusive. These rows are one share of the data; rates above refer to the full screens.

Ecoli rRNA inh,Ecoli rRNA inh OD600,Ecoli rRNA inh RFP,MLL AF4-AF9 inh,Structure
-5,5,-1.3,-0.8,O=C(Nc1ccc(F)cc1)N1C[C@@H]2[C@H](c3ccccc31)[C@H](CO)N2C(=O)c1cccnc1
-12,-22,-5.4,0.2,O=C(C[C@H]1CC[C@H]2[C@@H](COC[C@H](O)CN2Cc2cccc(Cl)c2)O1)NCc1cccc(F)c1
-4,-8,-0.1,-0.8,C[C@@H]1CN([C@H](C)CO)C(=O)c2cc(NC(=O)Nc3ccc(F)cc3)ccc2O[C@H]1CN(C)C(=O)Nc1cccc2ccccc12
16,11,3.7,-0.9,OC(c1ccccc1)(c1ccccc1)C1CCN(CCCOc2ccccn2)CC1
0,-16,3.2,0.6,C[C@@H]1CN([C@@H](C)CO)S(=O)(=O)c2ccc(-c3cccc(C(=O)N(C)C)c3)cc2O[C@H]1CN(C)Cc1ccc2c(c1)OCO2
9,15,-1.8,-1.1,N#Cc1cccc(S(=O)(=O)NCC(=O)OCC(=O)NCc2ccccc2)c1
1,-7,16,2.1,CNC[C@H]1Oc2ncc(C#CCC3CCCC3)cc2C(=O)N([C@H](C)CO)C[C@H]1C
0,4,-0.2,-1.6,CCC(=O)N1C[C@@H]2[C@H](c3ccccc31)[C@H](CO)N2Cc1ccc(F)cc1
-1,-5,4.6,-4.2,C[C@@H]1CCCCO[C@H](CN(C)C(=O)Nc2cccc3ccccc23)[C@@H](C)CN([C@@H](C)CO)C(=O)c2cc(NC(=O)c3ccncc3)ccc2O1
-4,-6,-0.8,-1.6,C[C@@H]1CCCCO[C@H](CN(C)C(=O)c2ccccc2)[C@H](C)CN([C@@H](C)CO)C(=O)c2cc(NS(C)(=O)=O)ccc2O1
10,1,2.1,-6.0,C=CCN1[C@@H](C)[C@H](c2ccccc2)Oc2cccc(NCC(C)C)c2S1(=O)=O
0,2,1.0,3.4,Cc1noc(C)c1NC(=O)Nc1ccc2c(c1)C(=O)N([C@H](C)CO)C[C@@H](C)[C@H](CN(C)C(=O)Nc1ccc(C(F)(F)F)cc1)OCCCC[C@@H](C)O2
-1,-52,20,-0.8,N#C[C@H]1[C@H](c2ccc(-c3ccccc3F)cc2)[C@@H](CO)N1C(=O)c1ccccn1
3,3,4.5,0.2,COCC(=O)Nc1ccc2c(c1)OC[C@H](C)N(C(=O)c1cccnc1)C[C@H](C)[C@@H](OC)CN(C)C2=O
-22,-68,-0.9,3.2,O=C(C[C@@H]1CC[C@H]2[C@@H](COC[C@@H](O)CN2Cc2ccc(Oc3ccccc3)cc2)O1)N1CCCCC1
-2,-1,-0.3,5.8,Cc1ccc(NC(=S)Nc2ccc(-c3nnc4n3CCCCC4)cc2)cc1C
2,8,-3.0,0.7,COc1cccc(NC(=O)N[C@@H]2C=C[C@H](CC(=O)NCc3ccccn3)O[C@H]2CO)c1
-2,-6,2.0,-6.2,C/C=C/c1ccc([C@@H]2[C@H](CO)N(C(=O)C3CCC3)C23CN(S(=O)(=O)CC)C3)cc1
3,9,-3.7,-0.5,CNC[C@@H]1OCCCC[C@@H](C)Oc2ccc(NC(=O)c3ccccc3)cc2C(=O)N([C@H](C)CO)C[C@H]1C
2,2,0.0,-5.8,COCC#Cc1cnc2c(c1)C(=O)N([C@@H](C)CO)C[C@H](C)[C@H](CN(C)C(=O)Nc1cccc(F)c1)O2
-3,7,0.3,-11,CCCNC(=O)[C@@H]1[C@@H](CO)[C@@H]2Cn3c(ccc(C4=CCCCC4)c3=O)[C@H]1N2CC
-1,-1,-4.0,2.8,CCC(=O)N(C)C[C@H]1Oc2cc(C#CCOC)ccc2S(=O)(=O)N([C@H](C)CO)C[C@@H]1C
-2,-2,-0.2,0.0,COCC#Cc1ccc2c(c1)O[C@H](CN(C)C(=O)c1ccccc1)[C@H](C)CN([C@@H](C)CO)S2(=O)=O
-20,-40,-4.7,-0.9,COc1cccc(CN2CCC2(C)C(=O)Nc2ccc(C)c(O)c2)c1F (configuration not stated)
2,2,-1.1,-14,C[C@@H]1CN([C@H](C)CO)C(=O)c2ccccc2-c2ccccc2CO[C@@H]1CN(C)C(=O)Nc1ccc(F)cc1
2,7,-0.8,-2.2,CN1C(=O)c2cc(NC(=O)c3ccccc3Cl)ccc2OC[C@H]2O[C@H](CC(=O)O)CC[C@@H]21
0,2,0.4,21,COc1cccc(NC(=O)Nc2ccc3c(c2)C(=O)N(C)C[C@@H](OC)[C@H](C)CN[C@H](C)CO3)c1
18,10,3.9,-1.7,COCCN1C(=O)c2ccccc2C1c1nnnn1-c1ccc2c(c1)OCCO2 (configuration not stated)
4,9,-0.8,-2.8,C/C=C/c1ccc([C@@H]2[C@@H](CO)N(Cc3ccccn3)[C@H]2CNC(C)=O)cc1
5,16,1.3,-3.6,O=C(C1CC1)N1CC(=O)N2[C@@H](CO)[C@@H](c3ccc(-c4cccnc4)cc3)[C@@H]2C1
-2,-7,0.8,-6.5,COc1ccccc1NC(=O)N1C[C@@H](O)COC[C@@H]2O[C@@H](CC(=O)NCc3ccccc3)CC[C@H]21
0,7,-2.5,-3.0,C[C@@H]1CCCCO[C@H](CN(C)Cc2ccc(C(=O)O)cc2)[C@H](C)CN([C@@H](C)CO)C(=O)c2cc(NC(=O)CCCN(C)C)ccc2O1
-1,5,-3.6,-0.7,CC(C)NC(=O)N[C@@H]1CC[C@H](CC(=O)NCCN2CCCC2)O[C@H]1CO
-1,-4,-3.8,-2.5,Cc1ccc(S(=O)(=O)N[C@H]2C=C[C@H](CC(=O)NCCN3CCCCC3)O[C@@H]2CO)cc1
2,2,0.7,2.4,CNC[C@@H]1OCCCC[C@H](C)Oc2ccc(NC(=O)Nc3ccc(F)cc3)cc2C(=O)N([C@@H](C)CO)C[C@@H]1C
-9,-9,1.2,7.8,Cc1ccc(NCc2cccc(B(O)O)c2)cc1
-39,-71,-9.8,-2.7,CCc1cc(-c2cnnn2Cc2ccccc2)ccc1-c1cn(CC(C)C)nn1
6,1,0.5,-2.5,CC(C)NC(=O)Nc1ccc2c(c1)CC(=O)N([C@H](C)CO)C[C@@H](C)[C@H](CN(C)Cc1ccc(C(=O)O)cc1)O2
-3,-4,-2.3,-18,Cc1ccc(S(=O)(=O)Nc2ccc3c(c2)C(=O)N([C@@H](C)CO)C[C@@H](C)[C@H](CN(C)C(=O)NC(C)C)OCCCC[C@@H](C)O3)cc1
18,11,3.8,-8.3,COC(=O)c1ccsc1NS(C)(=O)=O
1,7,2.3,-0.7,C[C@@H]1CN([C@@H](C)CO)C(=O)c2cc(NC(=O)Cn3cnnn3)ccc2O[C@@H]1CN(C)C(=O)Nc1cccc2ccccc12
-3,-10,-0.2,0.7,CCC(=O)Nc1ccc2c(c1)OC[C@H](C)N(Cc1nccs1)C[C@@H](C)[C@H](OC)CN(C)C2=O
1,-3,2.1,1.1,C[C@@H]1CN([C@@H](C)CO)C(=O)c2cc(NC(=O)Nc3ccccc3)ccc2O[C@@H]1CN(C)C(=O)Nc1cccc2ccccc12
-1,-17,1.6,5.9,C[C@@H]1CN([C@@H](C)CO)C(=O)Cc2cc(NC(=O)Nc3ccc(C(F)(F)F)cc3)ccc2O[C@@H]1CN(C)S(=O)(=O)c1cn(C)cn1
-36,-64,1.0,-1.5,O=C(Nc1cccc(F)c1)N1CC(=O)N2[C@H](C1)[C@@H](c1ccc(-c3ccc(F)cc3)cc1)[C@@H]2CO
-5,-1,-1.0,1.0,CCCCc1ccc(S(=O)(=O)NC(=O)C2(C)CCN2C(=O)c2ccccc2)cc1 (configuration not stated)
3,3,-1.1,-1.2,C[C@H]1CN([C@@H](C)CO)C(=O)c2cccc(NS(=O)(=O)c3cn(C)cn3)c2O[C@H]1CN(C)S(=O)(=O)c1ccc(Cl)cc1
-5,1,-3.6,-1.0,COc1ccc(S(=O)(=O)N(C)C[C@@H]2Oc3ncc(C#Cc4cccc(F)c4)cc3C(=O)N([C@H](C)CO)C[C@@H]2C)cc1
-4,-2,0.0,-0.3,C[C@@H]1CN([C@@H](C)CO)C(=O)c2cccc(NS(C)(=O)=O)c2O[C@H]1CN(C)Cc1ccc(Cl)c(Cl)c1
1,13,0.7,3.1,COc1ccc2c3c(n(C)c2c1)[C@@H](CO)NCC31CN(C(=O)c2cccc(F)c2)C1

More compounds:
Ecoli rRNA inh,Ecoli rRNA inh OD600,Ecoli rRNA inh RFP,MLL AF4-AF9 inh,Structure
-11,-5,9.4,-1.2,O=C1C[C@@H]2c3c(cccc3CN1Cc1ccccc1Cl)C[C@@H](O)[C@H]2O
3,16,-2.0,-6.5,COCCNC(=O)C[C@H]1CC[C@@H]2[C@H](COC[C@H](O)CN2C(=O)Nc2ccccc2OC)O1
-4,2,5.3,-0.4,COc1ccc(S(=O)(=O)Nc2ccc3c(c2)C(=O)N([C@H](C)CO)C[C@H](C)[C@H](CN(C)S(=O)(=O)c2cn(C)cn2)OCCCC[C@H](C)O3)cc1
6,-5,1.7,-1.9,O=C(C1CCOCC1)N1CC(=O)N2[C@H](CO)[C@@H](c3ccc(-c4ccccc4F)cc3)[C@@H]2C1
-1,-9,2.9,2.6,COCC(=O)Nc1ccc2c(c1)OC[C@@H](C)N(CCc1ccccc1)C[C@@H](C)[C@H](OC)CN(C)C2=O
4,10,-1.2,-1.0,C/C=C/c1ccc([C@H]2[C@@H](CO)N(C(=O)CN(C)C)[C@H]2CNC(=O)CC)cc1
-1,8,0.5,1.8,C[C@@H]1CN([C@H](C)CO)C(=O)Cc2cc(NC(=O)Nc3cccc4ccccc34)ccc2O[C@H]1CN(C)C
4,12,-1.5,-1.7,CCCNC(=O)C[C@@H]1CC[C@@H]2[C@@H](COc3ccc(NC(=O)C4CCOCC4)cc3C(=O)N2C)O1
2,10,-2.4,-2.7,C[C@H]1CN([C@@H](C)CO)C(=O)c2cccc(NS(=O)(=O)c3ccccc3)c2O[C@@H]1CN(C)Cc1ccc(C(=O)O)cc1
-1,0,-3.6,1.6,C[C@H](NC(=O)[C@H]1[C@H](CO)[C@H]2Cn3c(ccc(-c4ccccc4)c3=O)[C@@H]1N2C)c1ccccc1
-12,-14,13,3.1,COC(=O)[C@]12C[C@H](CC(=O)N3CCN(C(=O)c4ccco4)CC3)C(=O)N(Cc3ccc4c(c3)OCO4)C1=C[C@H](COCc1ccccc1)O[C@@H]2C
2,-2,-2.7,-0.4,C/C=C/c1ccc([C@H]2[C@@H](CO)N(C(=O)c3cnccn3)C23CN(C(=O)CC)C3)cc1
2,-12,4.4,?,C[C@@H]1CN([C@H](C)CO)C(=O)c2cccc(NC(=O)Nc3ccc(C(F)(F)F)cc3)c2O[C@H]1CN(C)Cc1ccncc1
-7,-20,-2.9,2.9,COCC(=O)N1CC[C@H]2[C@@H]1c1cc(-c3cccc(F)c3)ccc1N(C)[C@H]2CO
2,1,-1.4,-1.9,CO[C@H]1CN(C)C(=O)c2cc(NS(=O)(=O)c3ccccc3C)ccc2OC[C@@H](C)NC[C@H]1C
-5,0,-0.1,-1.3,C[C@@H]1CN([C@@H](C)CO)C(=O)c2cc(C3=CCCC3)cnc2O[C@H]1CN(C)C(=O)C1CCCCC1
4,0,-0.7,-2.1,CC(C)NC(=O)Nc1ccc2c(c1)C(=O)N([C@H](C)CO)C[C@@H](C)[C@@H](CN(C)CC1CCCCC1)OCCCC[C@H](C)O2
-57,-75,-8.0,15,COc1ccccc1C#Cc1ccc([C@@H]2[C@H](CO)N3CCCCN(CCC(F)(F)F)C[C@@H]23)cc1

Given tab-delimited: part of the list above
molecule	Ecoli rRNA inh	Ecoli rRNA inh OD600	Ecoli rRNA inh RFP	MLL AF4-AF9 inh
CO[C@H]1CN(C)C(=O)c2cc(NS(=O)(=O)c3ccccc3C)ccc2OC[C@@H](C)NC[C@H]1C	2	1	-1.4	-1.9
OC(c1ccccc1)(c1ccccc1)C1CCN(CCCOc2ccccn2)CC1	16	11	3.7	-0.9
N#Cc1cccc(S(=O)(=O)NCC(=O)OCC(=O)NCc2ccccc2)c1	9	15	-1.8	-1.1
CC(C)NC(=O)N[C@@H]1CC[C@H](CC(=O)NCCN2CCCC2)O[C@H]1CO	-1	5	-3.6	-0.7
C[C@@H]1CN([C@H](C)CO)C(=O)Cc2cc(NC(=O)Nc3cccc4ccccc34)ccc2O[C@H]1CN(C)C	-1	8	0.5	1.8
C[C@H](NC(=O)[C@H]1[C@H](CO)[C@H]2Cn3c(ccc(-c4ccccc4)c3=O)[C@@H]1N2C)c1ccccc1	-1	0	-3.6	1.6
COCC(=O)Nc1ccc2c(c1)OC[C@@H](C)N(CCc1ccccc1)C[C@@H](C)[C@H](OC)CN(C)C2=O	-1	-9	2.9	2.6
